# WNV NS2B-NS3 inh: inhibitors of WNV NS2B-NS3 protease, primary screen, biochemical, fluorogenic substrate | Genome polyprotein (West Nile virus), P06935 | fluorogenic substrate Ex360/Em465; active compounds read low | z-score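 (tested at a level between 10 and 100 µM)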 | actives 0.18% (n = 65,000);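 active = z-score at -3 or under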;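 note: score is relative to mean and spread of the compound wells of a plate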
# Target sequence (P06935 1371-1501 limits assumed): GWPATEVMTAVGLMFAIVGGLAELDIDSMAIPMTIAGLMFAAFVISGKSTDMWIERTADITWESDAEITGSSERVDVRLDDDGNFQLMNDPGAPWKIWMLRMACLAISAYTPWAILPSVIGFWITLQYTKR
# Target sequence (P06935 1502-1679 limits assumed): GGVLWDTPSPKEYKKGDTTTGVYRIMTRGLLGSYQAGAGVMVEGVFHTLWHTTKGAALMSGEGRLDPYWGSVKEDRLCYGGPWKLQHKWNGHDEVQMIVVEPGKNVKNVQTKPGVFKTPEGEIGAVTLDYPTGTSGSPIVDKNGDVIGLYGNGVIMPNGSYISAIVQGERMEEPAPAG
# Hsc70 ATP site: Hsc70 inhibitors, probe displacement, primary screen, biochemical, fluorescence polarization (AID 568); Heat shock cognate 71 kDa protein (Homo sapiens); Hsc70 fluorescence polarization, probe displacement; higher % means a stronger effect; strong numbers were not always called active; displacement, % at 20 µM; hits with a dose series show IC50 in µM; 83,000 tested, under 10 active;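 active = displacement above 50% without optical interference and an IC50 on retest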;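 note: ATPase domain with a fluorescein-tagged ATP probe; 0% = vehicle and 100% = excess ADP; read after one hour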
# MT1-MMP promoter: inhibitors of MT1-MMP promoter transcription, cell-based, luciferase reporter, luminescence (AID 618). actives 0.62% (n = 87,000). calls from a first round at 10 µM; hits with a dose series show EC50 in µM. MT1-MMP promoter luciferase reporter cells, luminescence;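 active = over half of the reporter light lost at 10 µM or EC50 under 50 µM; inactive = the rest and hits that failed the dose series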;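 note: actives suppress MT1-MMP promoter-driven transcription so potencies describe inhibitors; HT1080 fibrosarcoma cells; overnight exposure; toxic or luciferase-blocking compounds were not removed from the actives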
# Numbers without * were called inactive; i = inactive; . = not tested or not shown.
SMILES,WNV NS2B-NS3 inh,Hsc70 ATP site,MT1-MMP promoter
Cc1ccc(C(=O)OCC(=O)Nc2ccccc2N2CCOCC2)cc1,.,-5.1%,i
NC(=O)C1CC(O)CN1c1nc(CN2CCOCC2)nc2scc(-c3ccccc3)c12 (stereo unspecified),0.72,4.1%,i
Cc1cc(NC(=O)COc2ccc(N(C)S(=O)(=O)c3ccccc3)cc2)no1,0.23,-0.4%,i
O=C(Nc1ccccc1N1CCN(c2ccc(F)cc2)CC1)c1ccccc1,0.01,-0.1%,i
O=c1cc(O)nc(SC23CC4CC(CC(C4)C2)C3)[nH]1,0.36,0.9%,i
Cc1cc(C)c2nc(C(F)(F)F)nc(N3CC(C)OC(C)C3)c2c1 (stereo unspecified),0.37,6.9%,i
O=S(=O)(NCc1ccccc1)c1ccc(S(=O)(=O)N(Cc2cccs2)CC2CCCO2)cc1 (stereo unspecified),.,-0.3%,i
O=C(O)c1cccnc1-c1ncccc1C(=O)O,-0.17,1.4%,i
CCN(CC)Cc1c[nH]c2c(C(=O)OC)cccc12,-0.2,-2.3%,i
CCOC(=O)N1CCC(Nc2ccc3nnc(-c4ccccc4)n3n2)CC1,-0.3,4.5%,i
Cc1ccccc1C(=O)c1cccn1CC(=O)N1CCCCCC1,-0.89,-8.1%,i
CN1CCC(=C2c3ccccc3C=Cc3ccccc32)CC1,-0.22,3.0%,i
CCOC(=O)c1cn(-c2ccccc2)nc1-c1ccncc1,-0.41,-1.9%,i
O=C(Cn1cccc1C(=O)c1ccccc1)NCCCN1CCOCC1,0.1,1.2%,i
CN(CC(=O)Nn1cnnc1)S(=O)(=O)c1ccccc1,.,0.5%,i
CCn1c(SCC(=O)Nc2nc(C)c(C)s2)nnc1-c1cccs1,.,-3.0%,i
Cc1ccc(Cl)cc1NC(=O)COC(=O)C1CCCC1,-0.74,2.4%,i
COc1ccc(C(C(=O)NC2CCCC2)N(C(=O)c2ccco2)c2ccc3c(c2)OCO3)cc1OC (stereo unspecified),2,2.0%,i
O=C(CSc1nnc(-c2ccco2)n1CC1CCCO1)c1ccc(F)cc1 (stereo unspecified),0.67,5.5%,i
C=C(C)CN1C(=O)c2ccccc2C1=O,.,4.5%,i
Cc1cc(C)c(NC(=O)NC(=O)c2cccc(F)c2)c(C)n1,-0.15,-5.0%,i
COC1=CC(=O)OC12CCCCC2,0.24,1.3%,i
COc1ccc(NC(=O)CSc2nnc(-c3cccnc3)n2Cc2ccco2)c(OC)c1,1.1,-12%,i
CCOC(=O)Nc1ccc2c(CN3C(=O)NC4(CCCC4)C3=O)cc(=O)oc2c1,1,-5.7%,i
Cc1csc2ncc(C(=O)Nc3ccon3)c(=O)n12,0.31,-6.9%,i
O=C(c1cccc2cccc(O)c12)N1CCCCC1,1.4,2.1%,i
COc1ccc(C(=O)NCC(=O)O)cc1,0.41,-1.5%,i
COc1ccc(C2N=C(c3ccccc3)C(C)(C)N2O)cc1OC (stereo unspecified),1.1,7.4%,i
CC1(C)CC(=O)C=C(NCCN2CCNCC2)C1,.,3.1%,i
CCC1Oc2ccc(C)cc2N(CC(=O)N(Cc2cccnc2)Cc2ccc(C)o2)C1=O (stereo unspecified),-0.85,0.9%,i
CCc1ccccc1NC(=O)CSc1ncn[nH]1,-0.87,-2.1%,i
COc1cccc(NC(=O)N2CCCC2C(=O)NC2CC2)c1 (stereo unspecified),-0.03,2.9%,i
Cc1nn(-c2ccccc2)c2c1C(=O)N(c1ccccc1)C(=O)C(C)(C)C2,.,-0.3%,i
CCc1ccc(C2(O)CC(C(F)(F)F)=NN2C(=O)Cc2ccc([N+](=O)[O-])cc2)cc1 (stereo unspecified),.,-2.3%,i
C=CCCCCCCCCC(=O)Nc1c[nH]c(=O)[nH]c1=O,.,2.7%,i
CNC(=O)Nc1nnc(C(C)(C)C)s1,.,4.0%,i
O=C(Cc1ccccc1)NCCn1ccc2ccccc21,0.16,5.8%,i
CCn1c(COc2cccc(C)c2)nc2ccccc21,.,-5.1%,i
COc1cccc(-n2c(C)nc3cc(C(=O)O)ccc32)c1,.,0.6%,i
Cc1cccc(-n2ncc3c(NCc4ccco4)ncnc32)c1,0.74,-2.0%,i

# Two records drawn at random from those above, as already listed:
SMILES,WNV NS2B-NS3 inh,Hsc70 ATP site,MT1-MMP promoter
O=C(Cc1ccccc1)NCCn1ccc2ccccc21,0.16,5.8%,i
O=C(c1cccc2cccc(O)c12)N1CCCCC1,1.4,2.1%,i

# Continued.
SMILES,WNV NS2B-NS3 inh,Hsc70 ATP site,MT1-MMP promoter
COCCCNC(=O)Cn1nnc(-c2ccccc2NC(=O)c2ccc(F)cc2)n1,-0.55,-2.3%,i
COc1ccc(-n2c(NC(=O)c3ccco3)c(C#N)c3nc4ccccc4nc32)cc1,0.77,-21%,i
N#Cc1c(NC(=O)CSc2ncn[nH]2)sc2c1CCCCC2,0.11,-5.8%,<0.098µM*
O=C(O)C1CC=CCC1C(=O)Nc1cccc(Cl)c1 (stereo unspecified),-0.65,-2.6%,i
C/C(=N\NC(=O)c1ccc(C)cc1)C1C(=O)c2ccccc2C1=O,.,-3.2%,i
CCOC(=O)c1nnc2ccnn2c1N,-0.53,4.0%,i
COc1cccc(-c2nc(CS(=O)CC(=O)O)c(C)o2)c1 (stereo unspecified),0.39,6.4%,i
CCOC(=O)N1CCN(C2CC(=O)N(c3ccc(Cl)c(Cl)c3)C2=O)CC1 (stereo unspecified),.,1.5%,i
COc1ccccc1N(Cc1cc2cccc(C)c2[nH]c1=O)C(=O)C(C)C,0.06,-2.0%,i
O=C(Nc1cc2c(cc1Br)OCCO2)c1ccco1,.,-0.2%,i
CC(C)c1ccc(N(CC(=O)NCCSC(C)(C)C)S(C)(=O)=O)cc1,.,-4.8%,i
CCCNC(=O)N1CCN(c2nc(C(C)C)c3c(c2C#N)CC(C)(C)OC3)CC1,0.37,0.5%,i
Cc1ccc(/C(O)=C2/C(=O)C(=O)N(CCN3CCOCC3)C2c2ccccn2)cc1 (stereo unspecified),0.15,0.4%,i
COc1ccc(-c2cc3nnc(-c4ccccc4)nc3s2)cc1,.,3.6%,0.86µM*
Nn1c(CN2CCCCC2)nc2ccccc2c1=O,-0.28,-4.2%,i
COc1ccc(OC)c(C(c2nnnn2C2CCCC2)N2CCN(c3ccc(F)cc3)CC2)c1 (stereo unspecified),-1.1,-5.2%,i
O=C(Nc1ccccc1C(=O)N1CCOCC1)c1ccc(F)cc1,.,2.2%,i
CCOc1cc(-c2nc(-c3ccncc3)no2)cc(OCC)c1OCC,-0.24,1.0%,i
CCn1ncc(CNC(=O)CCSc2nc(-c3ccco3)cc(C(F)(F)F)n2)c1C,.,-2.6%,i
COc1ccc(-c2nc3n(c2Br)CCC3)cc1,0.26,5.0%,i

# Brought forward from above: 3 compounds; new compounds follow.
SMILES,WNV NS2B-NS3 inh,Hsc70 ATP site,MT1-MMP promoter
CCOc1cc(-c2nc(-c3ccncc3)no2)cc(OCC)c1OCC,-0.24,1.0%,i
CCn1ncc(CNC(=O)CCSc2nc(-c3ccco3)cc(C(F)(F)F)n2)c1C,.,-2.6%,i
COc1ccc(-c2nc3n(c2Br)CCC3)cc1,0.26,5.0%,i
O=C(CN1CCc2[nH]c3ccccc3c2C1)N1CCCCC1,-0.79,3.8%,i
COc1ccc(CCC(=O)NCc2cn3ccsc3n2)cc1,-1.5,-2.2%,i
[N-]=[N+]=CC(=O)CC(c1ccccc1)N1C(=O)c2ccccc2C1=O (stereo unspecified),-0.4,-1.7%,i
O=C(NCCO)c1cc2ccccc2cc1O,0.09,9.8%,i
O=C(C1CCCC1)N(c1ccccc1)C1C=CS(=O)(=O)C1 (stereo unspecified),0.48,-6.4%,i
O=C(Nc1ccc(N2CCN(C(=O)c3ccccc3)CC2)c(Cl)c1)c1ccc(Br)o1,-0.44,1.6%,i
CC(c1ccco1)N(C(=O)C12CC3(C)CC(C)(CC(C)(C3)C1)C2)c1ccccn1 (stereo unspecified),.,3.6%,i
COc1ccccc1-c1nnc(Nc2nc3c(OC)cccc3s2)o1,0.79,0.7%,i
O=C(NCc1cccs1)c1ccccc1C(=O)NCc1cccs1,-0.75,-1.2%,i
Cc1cccc(C)c1-n1nnnc1SCSc1nnnn1-c1c(C)cccc1C,-0.34,-8.2%,i
COc1cccc(NC(=O)Nc2c(C)n(C)n(-c3ccccc3)c2=O)c1,.,-1.2%,i
CCCCNC(=O)C(C#N)c1nc2ccccc2nc1N1CCCC1 (stereo unspecified),-0.92,4.1%,i
Cn1c(-c2ccc(Br)o2)nc2ccccc21,0.01,-1.6%,i
O=C(Cn1cnc2c(nnn2Cc2ccc(Cl)cc2)c1=O)NC1CCCC1,-0.53,-2.5%,i
O=C(NCc1cccs1)C1CCN(S(=O)(=O)c2cccc3cccnc23)CC1,2.4,3.1%,i
O=c1cnnc(SCCc2ccccc2)[nH]1,0.17,-4.2%,i
Cc1nc(Nc2ncc3c(n2)CCCC3=O)nc2ccccc12,-0.0049,-20%,i
O=C(O)CN(Cc1ccco1)S(=O)(=O)c1ccccc1,-0.46,-1.6%,i
COC(=O)c1sccc1NC(=O)c1cc2c(s1)CCCC2,1.1,0.3%,i
Cc1ccc(S(=O)(=O)NC2=NCN(Cc3ccccc3)CN2)cc1,-0.41,5.4%,i

# Next section; the last 4 above are carried over.
SMILES,WNV NS2B-NS3 inh,Hsc70 ATP site,MT1-MMP promoter
Cc1nc(Nc2ncc3c(n2)CCCC3=O)nc2ccccc12,-0.0049,-20%,i
O=C(O)CN(Cc1ccco1)S(=O)(=O)c1ccccc1,-0.46,-1.6%,i
COC(=O)c1sccc1NC(=O)c1cc2c(s1)CCCC2,1.1,0.3%,i
Cc1ccc(S(=O)(=O)NC2=NCN(Cc3ccccc3)CN2)cc1,-0.41,5.4%,i
CCOC(=O)N1CCN(c2c(N3CCOCC3)c(=O)c2=O)CC1,-0.42,1.0%,i
Cc1csc(=NC(=O)c2ccccc2)n1Cc1ccco1,-0.82,3.6%,i
O=C(Nc1cccc(F)c1)C1C2C=CC3(CN(CCCN4CCOCC4)C(=O)C13)O2 (stereo unspecified),-0.14,-1.3%,i
CCn1c(SCC(=O)Nc2cc(C)ccc2C)nnc1-c1cnccn1,-1.5,-1.6%,i
Fc1cnc(N2CCOCC2)nc1NCc1ccccc1,0.45,17%,i
CCOc1ccc2nc(SCc3ccc(C(=O)OC)o3)[nH]c2c1,1.5,2.6%,i
CCN(CC)S(=O)(=O)c1cc(Br)c(C)cc1OC,-0.51,1.3%,i
O=c1c2cc(-c3ccccc3)sc2ncn1/N=C/c1ccco1,2.1,0.1%,i
Cc1[nH]c2ccccc2c1C(=O)CSc1nc2cc(S(=O)(=O)N3CCCCC3)ccc2o1,1.6,1.1%,i
O=C(Nc1ccc2ccccc2c1)c1cn(-c2ccccc2)nc1-c1cccs1,.,-1.1%,i
CSc1nc(-c2ccco2)nn1C(=O)c1ccccc1,.,2.1%,i
CCOc1ccc(OCC)c(NC(=O)CN2CCN(c3ccc(C)cc3C)CC2)c1,-0.35,-1.0%,i
COc1ccccc1NC(=O)COC(=O)c1ccc(S(=O)(=O)NCc2ccco2)cc1,-0.23,-5.2%,i
COc1cccc(/C(O)=C2/C(=O)C(=O)N(c3ccccn3)C2c2ccc(OC)c(OC)c2)c1 (stereo unspecified),.,-2.4%,i
CC1(C)CC(=O)C=C(NCCN2CCN(C(=O)Nc3ccc(Cl)c(Cl)c3)CC2)C1,1.9,5.4%,i
O=[N+]([O-])c1cnccc1Nc1ccccc1,.,-4.2%,i
C=CCn1c(-c2ccccc2)nc(=S)c2c1CC(C)(C)OC2,.,-0.2%,i
CCCCC(=O)Nc1ccc(C(=O)OC2CCCCC2)cc1,.,4.6%,i
CNC(=O)c1cc2cc(OC)ccc2n1CCN(C)C,1.6,3.1%,i
O=C(NC1CC2CCC(C1)N2C(=O)NCc1ccccc1)C1CC1 (stereo unspecified),-0.3,-8.2%,i
Cc1c(C(=O)N2CC(C)OC(C)C2)oc2ccccc12 (stereo unspecified),-0.26,2.4%,i
Cc1ccc(C)c(N2CCN(C(c3ccncc3)c3nnnn3Cc3ccccc3)CC2)c1 (stereo unspecified),3.1,-1.0%,i
C=CCNC(=O)CN(c1cccc(Br)c1)S(C)(=O)=O,-0.46,-1.9%,i
NC(=O)NC(Cc1ccccc1)C(=O)O (stereo unspecified),-0.47,4.8%,i
COc1cc(OC)cc(C(=O)Nc2cccc(C(C)=O)c2)c1,-1.4,3.3%,i
CC(NS(=O)(=O)c1ccc(Cl)cc1)C(=O)NCc1ccco1 (stereo unspecified),.,10%,i
Cc1[nH]c2ccccc2c1C1(O)C(=O)N(C(C)C)c2ccccc21 (stereo unspecified),.,-0.4%,i
Cc1cc(C)n2cc(CSc3nnnn3C)nc2n1,-0.16,0.6%,i
CC(C)(C)C1CCC2(CC1)Nc1cccc3cccc(c13)N2,.,5.1%,i
CC(=O)c1c(C)[nH]c(C(=O)OCC(=O)C(C)(C)C)c1C,.,-3.7%,i
COc1ccc(S(=O)(=O)NCc2cn3c(C)csc3n2)cc1F,-0.03,5.1%,i
CCOCCCNC(=O)c1ccc2c(c1)ncn2C1CCCC1,1.3,1.6%,i
Cc1cccc(C2CC(c3ccc(Cl)cc3)Nc3nc(N)nn32)c1 (stereo unspecified),-0.47,-1.3%,i

# Screens: PubChem BioAssay, several laboratories

# An excerpt; the hit share may differ from the screen's.
